# Compound activity (PubChem BioAssay)
# H5N1 antiviral: MDCK cell protection from H5N1 avian flu; actives 0.07% (n = 96,000); cytopathic effect, luminescence, 72 h; hits give high values; no value below 0 was filed and about half of the inactive calls have no number; reference of the scale not given here; inhibition, % at 50 µM; AID 740; in the data active means inhibition above about 25%
# The depositor's hits bear a star; i = inactive. The list is partial, so the mix of outcomes need not match the whole.
SMILES,H5N1 antiviral
Cc1c(Cl)cccc1N1C(=O)C(N2C(=O)c3cccc([N+](=O)[O-])c3C2=O)C1c1cccs1 (stereo unspecified),i
CC1(C)OC(=O)C2(Cc3ccccc3N3CCCCC32)C(=O)O1 (stereo unspecified),0.2
O/N=C(\c1ccc(Cl)cc1Cl)c1ncc(C(F)(F)F)cc1Cl,1.3
CC1(C)C(=O)N(OCc2ccccc2)C(C)(C)C(=O)N1OCc1ccccc1,0.7
O=C(CSc1nnc(C2CC2)n1Cc1ccccc1)N1CCN(S(=O)(=O)c2ccccc2)CC1,1.4
Cc1ccc(C(=O)C2CCN(CC(=O)Nc3ccc4c(c3)OCCO4)CC2)cc1,i
N[C@@]12CCc3nonc3[C@]1(O)CC(c1ccccc1)=[N+]2[O-],i
CNC(=O)C1CCCN1S(=O)(=O)c1ccc(OC)cc1 (stereo unspecified),1.1
Clc1c(-c2nnc3n2CCC3)sc2ccccc12,0.4
Cc1cc(Cl)ccc1OCCCC(=O)Nc1cccnc1,i
Cc1nc(SCC(=O)Nc2cc(C)on2)c2c3c(sc2n1)CCCC3,i
COc1cc2c(cc1NC(=O)C(C)N1CCN(S(=O)(=O)c3ccccc3[N+](=O)[O-])CC1)oc1ccccc12 (stereo unspecified),i
CCOC(=O)C1=C(c2cccc(F)c2)NC(=S)NC1C (stereo unspecified),i
CCCOc1ccccc1N1C(=O)CC(N2CCOCC2)C1=O (stereo unspecified),i
CC(CCO)Nc1nc2c(c(=O)n(C)c(=O)n2C)n1Cc1cccc(Br)c1 (stereo unspecified),1.4
CCOC(=O)c1ccc(Nc2ccc(-c3ccc(OC)c(OC)c3)nn2)cc1,1.3
COc1ccc(Cl)cc1NC(=O)CSc1nnc(COc2ccccc2)n1N,0.5
Cc1ccc(N2C(=O)C3CC(c4ccccc4)=C4C5C=CC(C6C(=O)N(c7ccc(C)cc7C)C(=O)C56)C4C3C2=O)c(C)c1 (stereo unspecified),0.1
c1ccc(-c2csc(N3CCN(c4ccccn4)CC3)n2)cc1,i
CC(C)(C)C1CCC(OC(=O)CN2CCOCC2)CC1 (stereo unspecified),i
CCCc1nc(S(=O)(=O)Cc2ccc(Cl)cc2Cl)n[nH]1,i
COc1cc(-c2nn3c(C4CCCCC4)nnc3s2)cc(OC)c1OC,i
CC(C)CCn1nnnc1C(c1ccc(N(C)C)cc1)N1CCN(C(=O)c2ccco2)CC1 (stereo unspecified),i
Cc1ccc2[nH]c(=O)c(CN(Cc3nnnn3C3CCCC3)C3CCCCC3)cc2c1,0.1
NC(=O)CSc1nc2sc3c(c2c2ncnn12)CCCC3,9.5

# Gathered by group, those above with fluorine (2)
SMILES,H5N1 antiviral
O/N=C(\c1ccc(Cl)cc1Cl)c1ncc(C(F)(F)F)cc1Cl,1.3
CCOC(=O)C1=C(c2cccc(F)c2)NC(=S)NC1C (stereo unspecified),i

# A draw from above in order of heavy-atom count, lowest first:
SMILES,H5N1 antiviral
Clc1c(-c2nnc3n2CCC3)sc2ccccc12,0.4
CNC(=O)C1CCCN1S(=O)(=O)c1ccc(OC)cc1 (stereo unspecified),1.1
CC(CCO)Nc1nc2c(c(=O)n(C)c(=O)n2C)n1Cc1cccc(Br)c1 (stereo unspecified),1.4
COc1ccc(Cl)cc1NC(=O)CSc1nnc(COc2ccccc2)n1N,0.5
Cc1c(Cl)cccc1N1C(=O)C(N2C(=O)c3cccc([N+](=O)[O-])c3C2=O)C1c1cccs1 (stereo unspecified),i

# Additional structures
SMILES,H5N1 antiviral
Cc1ccc(CCNC(=O)CS(=O)Cc2nc(-c3cccc(C)c3)oc2C)cc1 (stereo unspecified),0.4
CC1CCN(S(=O)(=O)c2ccc(NC(=O)CN3CCN(C)CC3)cc2)CC1,i
COc1ccc(Nc2ncc3c(n2)CC(c2ccccc2)CC3=O)cc1 (stereo unspecified),2.8
CCCC[N+]12CCC(CC1)C(C(=O)c1cccs1)C2 (stereo unspecified),i
COC(=O)c1cc(COc2ccc3ccc(=O)oc3c2)c(C)o1,i
CCOC(=O)N1CCN(C(=O)c2ccc3c(=O)n(-c4ccc(OC)cc4OC)c(=S)[nH]c3c2)CC1,i
O=C(Cn1cc(C(=O)c2ccco2)c2ccccc21)Nc1ccccc1,i
Cc1nnc2ccc(N3CCN(c4ccccn4)CC3)nn12,2.4
O=C(NCc1ccco1)c1nc2ncccn2n1,2.1
COc1ccc(C(=O)Nc2nc3ccccc3c(=O)[nH]2)cc1,0.1
O=C(NC(=S)Nc1cccc2cccnc12)c1ccccc1,i
CCOC(=O)CN1C(=O)S/C(=C/c2cc(C)n(-c3ccccn3)c2C)C1=O,i
Cc1nnc(C)n1/N=C/c1cccc(Oc2ccccc2)c1,i
O=C(NCc1ccco1)c1ccc(Oc2ccccc2)cc1,i
Cc1ccccc1NS(=O)(=O)c1cc(C(=O)N2CCCC2)ccc1C,1.7
Cc1ccc(NC(=O)COc2ccc(S(=O)(=O)N3CCOCC3)cc2)cc1,i
O=C(CCN1CCN(Cc2ccccc2)CC1)Nc1ccc(OCc2ccccc2)cc1,i
CCOC(=O)CCC(=O)OCC(=O)NC(C)C1CC2CCC1C2 (stereo unspecified),i
CC1(C)CC(=O)C=C(NCCO)C1,i
CN1CCN(C(=O)CCCOc2ccc(Cl)cc2Cl)CC1,i
COc1ccc(Nc2nc(Cl)nc(NCc3ccco3)n2)cc1,1.3
O=C(NCCc1ccccc1)C(=O)N/N=C/c1ccccc1C(F)(F)F,0.5
c1ccc2c(CNCCN3CCOCC3)cccc2c1,1.0
COc1ccc(-c2nnc(SCc3nnc(-c4ccccc4)o3)n2-c2ccccc2)cc1,i
N=c1ccn(Cc2ccc(Cl)cc2)cc1,i

# The list goes on; it opens with the four that closed the last part.
SMILES,H5N1 antiviral
O=C(NCCc1ccccc1)C(=O)N/N=C/c1ccccc1C(F)(F)F,0.5
c1ccc2c(CNCCN3CCOCC3)cccc2c1,1.0
COc1ccc(-c2nnc(SCc3nnc(-c4ccccc4)o3)n2-c2ccccc2)cc1,i
N=c1ccn(Cc2ccc(Cl)cc2)cc1,i
Cn1sc(NC(=O)c2ccc(Cl)cc2)nc1=O,i
CC(C)On1c(SC(C)C)nc2ccccc2c1=O,i
CC1(C)CC(=O)C(C(c2cccnc2)C2C(=O)CC(C)(C)CC2=O)C(=O)C1,1.7
Cc1ccc(-n2c(C)nnc2SCC(=O)N2CCc3ccccc3C2)cc1C,1.1
COc1cc(SC)ccc1C(=O)N1CCCCCC1,i
Cc1ccc(SCCNC(=O)c2ccc(C)c([N+](=O)[O-])c2)cc1,i
C/C(=N\NC(=S)NCCc1ccccc1)c1ccc(C#N)cc1,0.3
O=C(c1nsc(Cl)c1Cl)N1CCCCC1,1.6
Cc1nc(Sc2ccccc2)c(C#N)cc1-c1ccccc1,7.5
CC(C)Oc1ccc(C(=O)Nc2ccc(N3CCCC3)cc2)cc1,0.1
Cc1cccc(C)c1Nc1nc2ccccc2o1,i
O=C(COc1ccc(S(=O)(=O)NCCc2ccccc2)cc1)N1CCCC1,2.3
CC(Oc1ccc(NC(=O)c2ccco2)cc1)C(=O)N1c2ccccc2CC1C (stereo unspecified),0.8
O=C1NC(=O)C(CCc2ccccn2)(Cc2ccc3c(c2)OCO3)C(=O)N1CCc1ccccc1 (stereo unspecified),i
O=C(CSc1nc2c(c(=O)n1-c1ccc(F)cc1)SCC2)N1CCCC1,0.2
O=S1(=O)c2ccccc2N=NN1Cc1cc(Cl)cc(Cl)c1,i
CCN(CC)CCNC(=O)c1cn(CC)c2ccc(S(=O)(=O)N(C)C)cc2c1=O,0.4
Cn1c(=O)cc(SCC(=O)NCc2cccnc2)c2ccccc21,0.4
CC1Cc2ccccc2N1C(=O)CSc1nnnn1C (stereo unspecified),i
O=C(Nc1c2ccccc2nc2ccccc12)C(Cl)(Cl)Cl,i
COc1cccc(CNC(=O)c2cc3ccccn3n2)c1,0.6
Cc1noc(C)c1C(=O)OCC(=O)NCCc1ccc(Cl)cc1,i
Cc1ccc(S(=O)(=O)N2CCCC2c2nc3ccccc3s2)cc1 (stereo unspecified),1.0
Cc1cc2c(ncn2C(C)C)c(N)c1C,i
O=C(CN1CCCCCC1)Nc1cccc2c1OCO2,1.4

# As entered above.
# Value of Cc1nnc2ccc(N3CCN(c4ccccn4)CC3)nn12 under H5N1 antiviral: 2.4
# Value of COc1ccc(Nc2nc(Cl)nc(NCc3ccco3)n2)cc1 under H5N1 antiviral: 1.3

# Continuation.
SMILES,H5N1 antiviral
COc1ccc(C(=O)Nc2ccc(S(=O)(=O)N3CCCCC3)cc2)cc1OC,4.5
Cc1ccc(C)n1C1CCS(=O)(=O)C1 (stereo unspecified),2.0
COc1ccc(/C=N/NC(=O)CSCC(=O)Nc2ccccc2)cc1OC,0.2
COc1ccc(-c2cn3ccccc3n2)cc1OC,i
CC(O)/C=C/c1cccc[n+]1C (stereo unspecified),i
O=P(COCCO)(c1ccccc1)c1ccccc1,i
C=CCNC(=O)CN1CCC(O)(c2ccc(F)cc2)CC1,1.2
CC(C)(C)NC(=O)CN(Cc1cccs1)C(=O)CNS(=O)(=O)c1ccccc1,0.4
CC(Nc1c([N+](=O)[O-])c(=O)oc2ccccc12)C(Cl)c1ccccc1 (stereo unspecified),4.3
COc1cccc(CNC(=O)Cn2cc3c(n2)CCCCC3)c1,0.2
COc1cc(SC)ccc1C(=O)NCCCOC(C)C,0.9
N#CC(C(=O)CCN1C(=O)C2CC=CCC2C1=O)c1nc2ccccc2[nH]1 (stereo unspecified),0.1
CCOc1ccc2nc(SC3CC(=O)N(c4ccc(OC)cc4)C3=O)sc2c1 (stereo unspecified),0.3
CCn1c(SCC(=O)c2[nH]c(C)c(C(C)=O)c2C)nnc1-c1ccccc1,2.6
O=S1(=O)N=C2CCCCCN2C(c2ccncc2)N1 (stereo unspecified),1.0
COc1ccc(NC(=O)CSc2nncn2C)c([N+](=O)[O-])c1,2.1
COc1ccccc1NC(=O)c1cc(S(=O)(=O)N2CCC3(CC2)OCCO3)ccc1F,0.4
O=C1N/C(=C\c2ccc(O)cc2)C(=O)c2ccccc21,i
COC(=O)CS(=O)(=O)c1ccc2c(c1)CC(=O)N2,i
CC(CCc1ccccc1)NC(=O)C(Cc1ccccc1)NS(=O)(=O)c1cccs1 (stereo unspecified),i
Cc1cc(Oc2ccccc2)nc(NCc2ccccc2)n1,i
COc1cc(C(=O)n2nc(C)cc2C)ccc1O,0.3
CNC(=O)CC(C(=O)O)c1ccc(OC(C)C)cc1 (stereo unspecified),0.3
O=C(Nc1ccc2nn(-c3ccccc3)nc2c1)c1cccs1,i
CCOc1ccccc1NC(=O)Cn1cnc2c(cnn2-c2ccc(C)c(C)c2)c1=O,i
# Further entries follow.
SMILES,H5N1 antiviral
Cc1nc2sc(C(c3cccc(F)c3)N3CCC(O)CC3)c(O)n2n1 (stereo unspecified),i
CC1=CC(=C2C(=O)c3ccccc3C2=O)C=C(C)O1,0.1
Cc1cccc(NC(=O)CSc2nnc([C@@H](N)Cc3ccccc3)o2)c1C,i
O=C(Nc1ccn(Cc2ccc(Cl)cc2)n1)c1ccc2c(c1)OCO2,1.9
CC1CCc2c(sc(N)c2C(N)=O)C1 (stereo unspecified),i
O=C(NCCN=C1NS(=O)(=O)c2ccccc21)c1ccc(S(=O)(=O)N2CCOCC2)cc1,0.8
CCOC(=O)/C=c1\s/c(=C\c2ccccc2OC)c(=O)n1CC(=O)N1CCOCC1,0.7
Cc1ccc(C(=O)NCCN(C)C)cc1C,0.4
Nc1c(N2CCCCC2)c(=O)[nH]c(=O)n1-c1ccccc1,i
CCC(=O)Nc1cccc(NC(=O)c2ccc3c(c2)OCO3)c1,0.0
CCN1CCN(C(=O)CN(C)S(=O)(=O)c2ccc(OC)cc2)CC1,0.5
Cc1cccc(-n2c(CCN3C(=O)c4ccccc4C3=O)nc3ccccc3c2=O)n1,i
CCSC1(SCC)N=C(N)C2(C#N)C(c3ccc(F)cc3)C12C#N (stereo unspecified),3.4
CCC(=O)Nc1nc(-c2ccc3c(c2)OCCO3)cs1,1.4
CN(C)Cc1cc(CN(C)C)c(O)c(CCc2ccccc2)n1,i
Cc1cc(C)n(-c2ccc(C(=O)NC3=NCCS3)cc2)n1,0.1
CCN1CCN(c2nc(SC)nc3sc4c(c23)CC(C)(C)OC4)CC1,i
CCCCOc1ccc(Cl)cc1CSc1nnc(CC)n1N,i
CCNC(=O)C/C(C)=N/NC(=O)C12CC3CC(CC(C3)C1)C2,0.2
CCOC(=O)C(Cc1ccccc1)(NC(C)=O)C(=O)OCC,i
COc1ccc(NC(=S)N2CCC(c3nc4ccc(Cl)cc4[nH]3)CC2)c(OC)c1,0.7
COC(=O)c1cc2cc(NS(=O)(=O)c3ccc(C)cc3)ccc2s1,i
CC(C)(C)NCCOc1ccc(Br)cc1,0.8
CCOc1ccccc1NC(=O)CSc1nc2cccnc2n1C,3.0
O=C(CN1CCC(n2nnc3cc(F)ccc32)CC1)Nc1ccc2c(c1)CCC2,i
# The list goes on:
SMILES,H5N1 antiviral
CCOC(=O)c1[nH]nc2c1C(=O)N(CC)C2=O,i
O=C(CSc1nnc(COc2ccccc2)o1)NCCc1ccccc1,i
Cc1cc(C)n2nc(Nc3ccccc3)cc2n1,i
N#Cc1c(NC(=O)CSCC(=O)O)sc2c1CCCC2,i
CSc1cccc(NC(=O)C2CCCN(S(=O)(=O)c3ccc(F)cc3)C2)c1 (stereo unspecified),1.4
CCN(CC)C(=O)c1ccc(NC(=O)c2cc(-n3cnnc3)ccc2Cl)cc1,1.6
O=C(CN1C(=O)c2ccccc2C1=O)Nc1nnc(C2CCCO2)s1 (stereo unspecified),0.6
CCCn1nc([N+](=O)[O-])c(C(C#N)c2nc3ccccc3s2)c(Cl)c1=O (stereo unspecified),i
CCOc1ccc(NC(=O)N(CC(C)C)CC(C)C)cc1,i
CCOc1ccc(-c2nnc(SCc3nnc(-c4ccccc4)o3)n2-c2ccccc2F)cc1,1.2
O=C(c1ccc(Cl)cc1)c1cn[nH]c1-c1ccccc1O,i
O=c1c(Cc2ccccc2)c(O)nc2n1CCCS2,0.2
COc1ccc(NC(C)=O)cc1NC(=O)CN1CCN(S(=O)(=O)c2ccc(C(C)C)cc2)CC1,i
